# CFTR F508del – total CFTR protein upregulators, primary screen, cell-based, HeLa F508del-CFTR, immunofluorescence, viability (AID 1224863) | Cystic fibrosis transmembrane conductance regulator (Homo sapiens) | HeLa F508del-CFTR, immunofluorescence total CFTR, 24 h; by the record results were divided by relative cell number; some inactives read as strong as hits | calls, or highest fold increase where a dose series was run | 0.1% of 10,000 active; in the data nearly all actives have a first-pass fold increase above 1.5; a few of its hits are not listed in these tables;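 note: total CFTR protein by anti-CFTR immunofluorescence in fixed cells; first pass at 25 µM or 10 µg/mL by library and series up to twice that; 1 = untreated cells; first-pass hits also needed half or more of the cells alive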
# CFTR F508del fold 25 µM – second read-out of CFTR F508del, no call of its own (marks repeat the call); fold increase; measured here: primary screen single dose 25 uM; library dosed in µM
# CFTR F508del fold 10 ug/mL – also measured in CFTR F508del; calls as there; fold increase; measured here: primary screen 10 ug/mL
# CFTR F508del viability 25 µM – recorded beside CFTR F508del, whose call it bears; viability, %; measured here: primary viability 25 uM; library dosed in µM;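 0% = killed and 100% = untreated cells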
# CFTR F508del viability 10 ug/mL – also measured in CFTR F508del; calls as there; viability, %; measured here: primary viability 10 ug/mL;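 0% = killed and 100% = untreated cells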
# Numbers without * were called inactive; i = inactive; x = no result given; & = joins results of further samples.
SMILES,CFTR F508del,CFTR F508del fold 10 ug/mL,CFTR F508del viability 10 ug/mL,others
O=C(CSc1nncn1Cc1ccco1)NC1CCCCCC1,i,1.1,96,
Cc1cc(C)n(CCC(=O)Nc2ncn[nH]2)n1,i,1,91,
Cc1cc(C(=O)COC(=O)c2cc3cc(Br)ccc3oc2=O)c(C)n1-c1ccc2c(c1)OCO2,i,0.99,114,
CN(Cc1nc2ccccc2[nH]1)S(=O)(=O)c1ccc2c(c1)CCC2,i,0.9,91,
COCCNc1nc2ccccc2s1,i,0.93,100,
Cc1nnc(CSc2nnc(-c3cccc(S(=O)(=O)N4CCOCC4)c3)o2)o1,i,1,83,
Cc1nnc(CO)n1C,i,1.1,107,
O=C(c1cnccn1)N1CCc2ccc([N+](=O)[O-])cc21,i,0.98,92,
CC(Nc1nc(C(F)(F)F)nc2ccccc12)c1cccc2ccccc12 (stereo not drawn),i,1.1,85,
Cc1cc(-n2c(C)cc(-c3csc(-c4ccco4)n3)c2C)no1,i,1,98,
CC(C)(C)C(=O)/C=c1/s/c(=C/c2ccsc2)c(=O)n1Cc1cc(=O)n2ccsc2n1,i,1.1,82,
CCc1cccc2c(C3=CCN(S(=O)(=O)N4CC(C)OC(C)C4)CC3)c[nH]c12 (stereo not drawn),i,0.96,104,
COc1ccc(Nc2ccc(S(=O)(=O)N3CCOCC3)cc2[N+](=O)[O-])c(OC)c1,i,1.1,93,
O=C(NCc1cccc(Br)c1)NC1(C(=O)O)CCCC1,i,1.1,89,
CCc1ccc(CN(CN2C(=O)NC3(CCC(C)CC3)C2=O)C2CC2)cc1 (stereo not drawn),i,1.1,99,
CCCc1noc(CCC(=O)NC(C2CC2)C2CC2)n1,i,1.1,106,
CCn1c2ccccc2c2nnc(SCC(=O)C(C)(C)C)nc21,i,0.96,92,
CC(C)n1nnnc1SCC(=O)c1ccc2c(c1)CCCC(=O)N2,i,1.1,94,
CC(=O)O[C@H]1C(=O)[C@@]2(C)[C@H]([C@H](OC(=O)c3ccccc3)[C@]3(O)C[C@H](OC(=O)[C@H](O)[C@@H](NC(=O)c4ccccc4)c4ccccc4)C(C)=C1C3(C)C)[C@]1(OC(C)=O)CO[C@@H]1C[C@@H]2O,i,x,x,CFTR F508del fold 25 µM=0.67;CFTR F508del viability 25 µM=70
CC1CCc2ccccc2N1C(=O)CN1C(=O)c2ccccc2S1(=O)=O (stereo not drawn),i,1.1,91,
O=C(CCCN1CCN(c2ccccn2)CC1)c1ccc(F)cc1,i,x,x,CFTR F508del fold 25 µM=0.68;CFTR F508del viability 25 µM=82
O=C(NCCCn1cccn1)c1ccc(Cl)s1,i,0.93,101,
Cn1c(SCCn2nc3ccccn3c2=O)nc2ccccc21,i,1.1,100,
c1ccc(-n2ncc3c(SCC4COc5ccccc5O4)ncnc32)cc1 (stereo not drawn),i,1.1,93,
COCC1=C(C(=O)OC(C)OC(=O)OC(C)C)N2C(=O)[C@@H](NC(=O)/C(=N/OC)c3csc(N)n3)[C@H]2SC1 (stereo partly drawn),i,x,x,CFTR F508del fold 25 µM=1.1;CFTR F508del viability 25 µM=113
O=S(=O)(c1cc(F)ccc1F)N1CCN(c2ccccc2F)CC1,i,1,95,
CCc1nc(CSc2nc3sc4c(c3c(=O)n2CC2CCCO2)CCCC4)cs1 (stereo not drawn),i,0.91,91,
CCC(C)NC(=O)CN1CCOCC1 (stereo not drawn),i,1.1,94,
COc1ccc(CN(C)S(C)(=O)=O)cc1OC,i,1,84,
Cc1cc(CSc2nnc(CN3CCCC3)n2-c2ccccc2)no1,i,0.89,111,
CCCSc1nnc(SCc2cc(=O)n3ccc(C)cc3n2)s1,i,1,90,
CSc1nnnn1-c1cccc(NC(=O)CC2c3ccccc3C=CN2C(C)=O)c1 (stereo not drawn),i,0.89,75,
N#Cc1cc([N+](=O)[O-])cn(Cc2ccc(Cl)cc2)c1=O,i,0.99,89,
Clc1ccc(CSc2nnnn2Cc2ccco2)c(Cl)c1,i,1.2,99,
N#Cc1ccc(CS(=O)(=O)NCc2ccco2)cc1,i,1,100,
Cc1ccc(OCCN2CCOCC2)c(C)c1,i,1.1,91,
C[C@@H](CN1CC(=O)NC(=O)C1)N1CC(=O)NC(=O)C1,i,x,x,CFTR F508del fold 25 µM=1.1;CFTR F508del viability 25 µM=91
CCN(Cc1ccncc1)C(=O)C(CO)c1ccccc1 (stereo not drawn),i,x,x,CFTR F508del fold 25 µM=1&1.1;CFTR F508del viability 25 µM=100&90
CC(SCc1cccc2ccccc12)c1nc2ccccc2c(=O)[nH]1 (stereo not drawn),i,1,93,
CO[C@H]1[C@@H]([C@@]2(C)O[C@@H]2CC=C(C)C)[C@]2(CC[C@H]1OC(=O)/C=C/C=C/C=C/C=C/C(=O)O)CO2,i,x,x,CFTR F508del fold 25 µM=1.1;CFTR F508del viability 25 µM=83
O=C(NCCSC1CCCC1)Nc1ccc(-c2nnnn2C2CC2)cc1,i,0.95,91,
CN(C)S(=O)(=O)N1CCN(C(=O)NCCc2ccc3c(c2)OCCO3)CC1,i,0.9,89,
CSc1nc2nc(C)c(CC(=O)NC3CCC(C)CC3)c(C)n2n1 (stereo not drawn),i,0.98,116,
Cc1nc(C)c(C#N)c(SCCOc2ccc(C#N)cc2)n1,i,1,90,
N#CCCC(C#N)Cn1cnc2sc3c(c2c1=O)CCCC3 (stereo not drawn),i,0.98,85,
COc1ccc(S(=O)(=O)N2CC=C(c3c[nH]c4ncccc34)CC2)c2cccnc12,i,0.97,84,
NS(=O)(=O)c1ccc2c(c1)CCN2Cc1ccc(Cl)c(Cl)c1,i,0.84,81,
CN(Cc1ccco1)S(=O)(=O)c1ccc2c(c1)CCC2,i,0.96,89,
CN(C(=O)CCc1nc2sc3c(c2c(=O)[nH]1)CCCC3)C1CCCCC1,i,1,91,
CC/C=C\C/C=C\C/C=C\C/C=C\C/C=C\C/C=C\CCC(=O)O,i,x,x,CFTR F508del fold 25 µM=1;CFTR F508del viability 25 µM=98
COC(=O)CCc1c(C)[nH]c(=S)[nH]c1=O,i,1.1,98,
CC(C)CNC(=O)c1cc2c(nc3sccn32)s1,i,1,79,
Cc1cc(C)n2c(SCC(=O)N3c4ccccc4NC(=O)C34CCCC4)nnc2n1,i,1.2,97,
COCc1c(C(=O)NC2=NCCS2)oc2ccccc12,i,1.1,94,
NC(=O)CCn1c(SCC2CCCCO2)nnc1-c1ccco1 (stereo not drawn),i,1.1,103,
Cc1cc(C)n2c(n1)nc(=S)n2CN1CCN(S(=O)(=O)c2ccc(Cl)cc2)CC1,i,1,97,
CCc1sc(C(=O)OC(C)C(=O)Nc2cc(C)no2)cc1C (stereo not drawn),i,1.1,84,
O=C(NCc1csc(Br)c1)C1CCC1,i,1,99,
Cc1cc(Br)c(OCC(=O)N2CCNC2=O)c(Br)c1,i,1.1,93,
O=C1OCCC1N1CCN(C(=O)C(c2ccccc2)c2ccccc2)CC1 (stereo not drawn),i,1,108,

# Continued.
SMILES,CFTR F508del,CFTR F508del fold 10 ug/mL,CFTR F508del viability 10 ug/mL,others
Cc1cc(-n2c(C)cc(C(=O)CN3C(=O)C4CCCN4C3=O)c2C)no1 (stereo not drawn),i,1.1,94,
O=S(=O)(NCC1CC2c3ccccc3C1c1ccccc12)c1cccs1 (stereo not drawn),i,0.79,77,
Cc1cc(C)n(-c2ccc(SC3CCCCNC3=O)nn2)n1 (stereo not drawn),i,0.99,100,
Cn1c(=O)c2c(ncn2CC(O)CO)n(C)c1=O (stereo not drawn),i,x,x,CFTR F508del fold 25 µM=1.1&1;CFTR F508del viability 25 µM=90&106
Cc1sc(NC(=O)C(C)(C)C)c(C(=O)OCC(=O)NC2(C#N)CCCCC2)c1C,i,0.98,97,
CC(C)C(C)NC(=O)Nc1cccc(I)c1 (stereo not drawn),i,0.85,94,
Cc1cc(NC(=O)C(C)(C)C)sc1C(=O)N1CCCC(NS(C)(=O)=O)C1 (stereo not drawn),i,0.96,94,
Cc1ccc(SCc2cc(=O)n3cc(Br)ccc3n2)c(C)c1,i,0.98,89,
CN(C)S(=O)(=O)N1CCN(C(=O)c2ccc(Br)o2)CC1,i,1.2,101,
CS(=O)(=O)OCCCCOS(C)(=O)=O,i,x,x,CFTR F508del fold 25 µM=0.97&0.99;CFTR F508del viability 25 µM=111&90
CCCc1ccc(C2(C)NC(=O)N(CC(=O)C(C)(C)C)C2=O)cc1 (stereo not drawn),i,0.99,72,
CCC(OC(=O)c1ccc(C)s1)C(=O)Nc1cc(C)on1 (stereo not drawn),i,0.95,96,
OC(CSc1nnnn1C1CCCCC1)c1ccccc1 (stereo not drawn),i,1.1,95,
CCCCCCn1c(SCCC(C)C)nc2c1c(=O)[nH]c(=O)n2C,i,0.95,103,
O=C(N1CCN(Cc2csc(-c3ccccc3)n2)CC1)C12CC3CC(CC(Cl)(C3)C1)C2,i,0.97,90,
CC(CN(C)C)CN1c2ccccc2Sc2ccccc21 (stereo not drawn),i,x,x,CFTR F508del fold 25 µM=0.91;CFTR F508del viability 25 µM=77
Cn1nnc2c(C(N)=O)ncn2c1=O,i,x,x,CFTR F508del fold 25 µM=0.91&1;CFTR F508del viability 25 µM=94&109
Cn1c(=O)[nH]c(=O)c2c1ncn2CCN1CCOCC1,i,0.97,95,
O=C(OCN1C(=O)c2ccccc2C1=O)c1c2c(nc3ccccc13)/C(=C\c1ccc3c(c1)OCO3)CC2,i,1,106,
N[C@@H](Cc1c[nH]c2ccccc12)C(=O)O,i,x,x,CFTR F508del fold 25 µM=1.1;CFTR F508del viability 25 µM=86
CCC(C)(C)NS(=O)(=O)c1ccc(F)c(Cl)c1,i,0.98,90,
CCOC(=O)CN,i,0.94,74,
CN(Cc1ccsc1)C(=O)C1=NN(C2CCS(=O)(=O)C2)C(=O)CC1 (stereo not drawn),i,1.1,90,
Cn1c(-c2c(N)n(CCCN3CCOCC3)c3nc(C#N)c(C#N)nc23)nc2ccccc21,1.6,1.4,72,
Cn1c(CN2C(=O)c3cccc([N+](=O)[O-])c3C2=O)cc(=O)n(C)c1=O,i,1,97,
COc1cc2c(cc1OC)C(c1ccccc1)N(S(=O)(=O)N1CCOCC1)CC2 (stereo not drawn),i,1,86,
C=C(Cl)Cn1cnc2ccc([N+](=O)[O-])cc2c1=O,i,0.84,89,
CC1=C(C(=O)OCc2ccccc2)C(c2cccc(F)c2)c2c([nH]c(=O)[nH]c2=O)N1 (stereo not drawn),i,0.91,91,
O=S(=O)(c1ccc2c(c1)OCCCO2)N1CCCSc2ccccc21,i,0.95,76,
CC(=O)OCC(=O)[C@@]1(O)[C@H](C)CC2C3CCC4=CC(=O)C=C[C@]4(C)[C@@]3(F)[C@@H](O)C[C@@]21C (stereo partly drawn),i,x,x,CFTR F508del fold 25 µM=1.1;CFTR F508del viability 25 µM=86
CN(C)S(=O)(=O)c1ccc2c(c1)CCN2Cc1nnsc1Cl,i,1,93,
N=c1ccn2c(n1)O[C@@H]1[C@@H](O)[C@H](CO)O[C@@H]12,i,x,x,CFTR F508del fold 25 µM=1.3;CFTR F508del viability 25 µM=92
CCCn1nnnc1COc1ccc2c(CC)cc(=O)oc2c1,i,0.99,86,
CC(Sc1nnnn1C1CCCC1)c1nc(N)nc(N(C)C)n1 (stereo not drawn),i,1,95,
O=C(c1cnc2cc3c(cc2c1)OC(F)(F)O3)c1cc(F)ccc1O,i,0.89,95,
CCN1C(=O)C(=O)N(CN2CCc3cc(OC)c(OC)cc3C2)C1=O,i,1.1,102,
CC(C)(Sc1cc(C(C)(C)C)c(O)c(C(C)(C)C)c1)Sc1cc(C(C)(C)C)c(O)c(C(C)(C)C)c1,i,x,x,CFTR F508del fold 25 µM=1.1;CFTR F508del viability 25 µM=81

# Grouped by structure: those above containing an NH in an aromatic ring.
SMILES,CFTR F508del,CFTR F508del fold 10 ug/mL,CFTR F508del viability 10 ug/mL,others
Cc1cc(C)n(CCC(=O)Nc2ncn[nH]2)n1,i,1,91,
CN(Cc1nc2ccccc2[nH]1)S(=O)(=O)c1ccc2c(c1)CCC2,i,0.9,91,
CCc1cccc2c(C3=CCN(S(=O)(=O)N4CC(C)OC(C)C4)CC3)c[nH]c12 (stereo not drawn),i,0.96,104,
CC(SCc1cccc2ccccc12)c1nc2ccccc2c(=O)[nH]1 (stereo not drawn),i,1,93,
COc1ccc(S(=O)(=O)N2CC=C(c3c[nH]c4ncccc34)CC2)c2cccnc12,i,0.97,84,
CN(C(=O)CCc1nc2sc3c(c2c(=O)[nH]1)CCCC3)C1CCCCC1,i,1,91,
COC(=O)CCc1c(C)[nH]c(=S)[nH]c1=O,i,1.1,98,
CCCCCCn1c(SCCC(C)C)nc2c1c(=O)[nH]c(=O)n2C,i,0.95,103,
Cn1c(=O)[nH]c(=O)c2c1ncn2CCN1CCOCC1,i,0.97,95,
N[C@@H](Cc1c[nH]c2ccccc12)C(=O)O,i,x,x,CFTR F508del fold 25 µM=1.1;CFTR F508del viability 25 µM=86
CC1=C(C(=O)OCc2ccccc2)C(c2cccc(F)c2)c2c([nH]c(=O)[nH]c2=O)N1 (stereo not drawn),i,0.91,91,

# Source: PubChem BioAssay (Southern Research Institute)

# Only part of the results is shown; the hit share may differ from the screen's.
